V. cholerae motility – Vibrio cholerae motility inhibitors, OD read-out (AID 588778). inhibition, %; hits with a dose series show IC50 in µg/mL. 10,000 tested, under 10 active. Vibrio cholerae motility, OD read-out; higher % means a stronger effect; test concentration not given here; primary cut-off and reference of the scale not given here; strong numbers were not always called active; in the data active = confirmed in a dose series; inconclusive = primary hit not retested
V. cholerae motility viability – recorded beside V. cholerae motility, whose call it bears; inhibition, %; measured here: bacterial viability at 10 ug/mL;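 higher means fewer living bacteria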
* = called active by the depositor; ? = inconclusive; . = no result given.

SMILES	V. cholerae motility	V. cholerae motility viability
CC1CCN(c2ccccc2NC(=O)CSc2ccc(Cl)cc2)CC1	-2%	-7
O=c1[nH]c(CN2CCN(C/C=C/c3ccccc3)CC2)nc2ccccc12	14%	2
N#C/C(=C\c1ccc(F)cc1)S(=O)(=O)c1ccccc1	5%	-1
Cc1cc(C(=O)Nc2ccon2)cs1	37%	13
CCOC(=O)c1ccc2nc(NC(=O)CSc3nc4ccccc4o3)sc2c1	20%	-1
O=C(CSc1ccc(Cl)cc1)Nc1ccc2c3c(cccc13)CC2	-26%	-10
O=[N+]([O-])c1cc(CN2CCC(c3ccccc3)C2)c(O)c2ncccc12 (centres undefined)	108%	94
CCOC(=O)Cc1csc(NC(=O)CCSc2ccccc2)n1	-10%	-10
CCOCCOC(=O)c1ccc(NC(=O)c2ccc(-c3ccccc3)cc2)cc1	-7%	-9
Cn1cnnc1SCC(=O)Nc1ccc(S(=O)(=O)Nc2nccs2)cc1	-8%	0
c1cnc2c(SCCN3CCOCC3)cccc2c1	-14%	-3
c1ccc(-c2nnc(OCC3CCCO3)c3ccccc23)cc1 (centres undefined)	0%	9
Cc1cc(C)c(C)c(S(=O)(=O)N2CCC(C(N)=O)(N3CCCCC3)CC2)c1C	11%	1
Cc1n[nH]c(C)c1Sc1n[nH]c(=O)[nH]c1=O	-4%	-6
CC1=NN(c2ccccc2)C(=O)C1(O)C1C(=O)c2ccccc2C1=O (centres undefined)	1%	-1
CC1=NN(c2nc(-c3ccccc3)cc(-c3ccc(F)cc3)n2)C(=O)C1	-5%	-2
N#Cc1c(-c2ccccc2)cc(-c2cccc([N+](=O)[O-])c2)c(C#N)c1N	20%	-1
CC(=O)c1ccc(NC(=O)c2ncn(-c3ccccc3)n2)cc1	11%	28
COc1cccc(Nc2ccccc2C)c1	-29%	-16
O=C(Nc1nnc(CCc2ccccc2)s1)C1CCCO1 (centres undefined)	15%	-4
COc1ccc(-c2ccc(/C=C3/SC(=S)NC3=O)o2)cc1	-2%	3
Cc1nnc(Nc2ccc(OCC(=O)N3CCN(c4ccccc4)CC3)cc2)c2ccccc12	-12%	2
O=C(Nc1ccc(-c2noc(-c3cccs3)n2)cc1)c1ccco1	-66%	-19
CCOc1ccc(NC(=S)NS(=O)(=O)c2cc(Br)ccc2OCC)cc1	20%	13
CCOC(=O)c1sc(NC(=O)c2ccc([N+](=O)[O-])s2)nc1C	11%	7
Nn1c(Cc2ccccc2)nnc1SCc1nnc(-c2ccccc2)o1	7%	30
O=[N+]([O-])c1cccc(-c2cnc3ccccc3n2)c1	27%	15
COc1ccc2c(c1)C(C)CC(C)(C)N2C(=O)CSc1nnc(C)s1 (centres undefined)	-29%	-8
COc1ccc(/C=C/C(=O)c2ccc(O)cc2)cc1COc1ccc(F)cc1	15%	-2
CCCCSc1ccc(NC(=S)Nc2ccccc2)cc1	13%	3
N=c1ccccn1CC(O)COc1ccccc1 (centres undefined)	8%	-4
Cc1cc(C)nc(NC(N)=NCc2cccnc2)n1	-5%	0
CCN(CC)/C(=N\S(=O)(=O)c1cccc([N+](=O)[O-])c1)c1ccccc1	11%	4
Cn1c(NC(=O)c2ccccc2NC(=O)C(C)(C)C)nc2ccccc21	2%	2
CSc1ccccc1Nc1ncnc(N)c1[N+](=O)[O-]	7%	0
CCOC(=O)C1C(c2cccs2)NC(=O)N(C)C1(O)C(F)(F)F (centres undefined)	5%	-6
O=C(NCc1ccc2c(c1)OCO2)c1cncc(Br)c1	5%	-3
CCCCC(=O)Nc1ccc(C(=O)NNC(=O)c2sc3ccccc3c2Cl)cc1	-14%	-8
COC(=O)c1cc(NC(=O)c2cnccn2)cc(C(=O)OC)c1	5%	0
O=C(Nc1ccccc1C(F)(F)F)C1CC(=O)N(c2ccccc2F)C1 (centres undefined)	-2%	-2

Structural class, those above with an NH in an aromatic ring.
SMILES	V. cholerae motility	V. cholerae motility viability
O=c1[nH]c(CN2CCN(C/C=C/c3ccccc3)CC2)nc2ccccc12	14%	2
Cc1n[nH]c(C)c1Sc1n[nH]c(=O)[nH]c1=O	-4%	-6

Other results.
SMILES	V. cholerae motility	V. cholerae motility viability
O=S(=O)(c1ccc(F)cc1)N1CCN(Cc2ccsc2)CC1	11%	-5
Cc1ccc2ncc(NC(=O)c3ccc(F)cc3)c(=O)n2c1	-2%	-3
FC(F)(F)c1cc(-c2ccccc2)nc2onc(OCCN3CCOCC3)c12	9%	0
CC(=O)C1=C(C)N(Cc2ccccc2)C(=O)C1CC(=O)O (centres undefined)	-7%	-9
O=C(NCc1ccccc1)c1cc([N+](=O)[O-])[nH]n1	14%	6
NS(=O)(=O)c1ccc(NC(=O)CSc2nc3ccccc3c(=O)n2-c2ccc(Br)cc2)cc1	-4%	-1
COc1cc(C)nc(NC(=O)COc2ccc(Cl)cc2C)n1	-3%	-7
CC(=O)Oc1ccc2nc(-c3ccc(Br)o3)oc(=O)c2c1	18%	5
N#CCCN(C(=O)Nc1ccc(Cl)cc1)c1ccccc1	21%	24
COc1ccc(CCNc2nc(C)cc(C)n2)cc1OC	-16%	-2
O=C(N/N=C/c1ccccn1)c1ccc(CN2CCOCC2)cc1	3%	2
O=C(O)c1c[nH]c2c(Cl)cccc2c1=O	-2%	8
Cc1c(C(=O)NC(=S)Nc2ccccc2N2CCCC2)cccc1[N+](=O)[O-]	-13%	-8
Cc1cc(/C=C/[N+](=O)[O-])c(C)n1-c1cccnc1	-7%	-7
CC(=O)Nc1cccc(NC(=O)Nc2ccc(F)cc2)c1	121%	87
Fc1ccc(NC(=S)N2CCN(c3cccc(C(F)(F)F)c3)CC2)cc1Cl	20%	8
COC(=O)COc1ccc(C=O)c(Br)c1	9%	1
COc1cc(C=Nn2c(-c3ccc(Cl)cc3Cl)n[nH]c2=S)cc(Br)c1O	4%	-3
Cc1nc(SCC(=O)NNC(=O)c2cccs2)n[nH]1	-2%	-7
COCCNCCOCCOc1ccccc1I	6%	1
CCc1cccc2ccc(S(=O)(=O)Nc3ccccc3C)c(CC)c12	-17%	-8
CCOC(=O)N1CCN(C(=O)CN(c2cc(Cl)ccc2Cl)S(C)(=O)=O)CC1	11%	-1
Cc1cc(C(=O)Nc2ccc(I)cc2C(=O)O)c(-c2ccccc2)o1	28%	5
CCOc1cc(/C=N/NC(=O)c2cc(C)[nH]n2)ccc1OC(=O)c1cccc2ccccc12	-3%	-3
S=C(c1ccc(N2CCOCC2)cc1)N1CCOCC1	-4%	-3
CC(=O)Nc1cccc(NS(=O)(=O)Cc2ccc(Cl)cc2)c1	?	.
COc1ccccc1C1(CC(=O)N2CCCCC2)CCOC(C(C)C)C1 (centres undefined)	5%	-2
COC(=O)c1ccccc1NC(=O)Nc1cc(OC)c(Cl)cc1OC	19%	5
Cc1cc(C)n2nc(C(=O)Nc3ccn(Cc4ccccc4C)n3)cc2n1	-6%	-5
Cc1c(NC(=S)Nc2ccc(F)c(Cl)c2)c(=O)n(-c2ccccc2)n1C	6%	2
CCC1CCc2nc3oc(SCC(=O)Nc4ccon4)nc3c(C(F)(F)F)c2C1 (centres undefined)	-10%	3
COc1cc(C(=O)Nc2nnc(-c3sccc3C)s2)cc(OC)c1OC	-4%	-7
CCOC(=O)CSc1nnc(COc2ccc(Br)cc2)n1Cc1ccccc1	-5%	-8
O=C1CN(c2ccccc2)C(=O)C1C(=O)N1CCOCC1 (centres undefined)	8%	2
CCCS(=O)(=O)N1CCN(C(=O)c2ccccc2F)CC1	-6%	-1
COc1ccc(NS(=O)(=O)c2ccc3oc4ccccc4c3c2)cn1	14%	30
Cc1nn(C)cc1CNC(=O)c1ccccc1Br	-9%	-5
CC1CN(C(=O)C(Cl)(Cl)Cl)CC(C)O1 (centres undefined)	4%	2
COc1ccc(Nc2nc(C)cc(C)n2)cc1Cl	7%	2
O=c1oc2cc3occ(-c4ccc5c(c4)OCO5)c3cc2c2ccccc12	2%	-4
CCc1c(C#N)c(SCc2ccc3c(c2)OCCO3)nc2c1C(=O)CC(C)(C)C2	-15%	-9
COCCSc1ccccc1C(=O)Nc1cc(C)on1	-11%	-6
CCOC(=O)N1CCN(S(=O)(=O)c2cc([N+](=O)[O-])ccc2C)CC1	-1%	-2
COC(=O)c1cc(COc2ccc3ccc(=O)oc3c2)c(C)o1	27%	-3
COc1ccc(-c2nnc(SCc3nnc(-c4ccccc4)o3)n2-c2ccccc2)cc1	21%	1
N#Cc1c(C(F)(F)F)cc(C2CC2)nc1SCC(=O)c1ccc(Cl)cc1	-1%	0
Cc1cccc(C)c1Nc1nc2ccccc2o1	8%	-5
CCN(CC)C(=O)c1nc(-c2ccccc2)cc(-c2ccccc2)n1	-4%	-3
COc1cc2c(-c3cc(Br)ccc3O)nc3c(c(C)nn3-c3ccccc3)c2cc1OC	7%	-4
CC(C)(C)NS(=O)(=O)c1ccc(NC(=O)C2c3ccccc3Oc3ccccc32)cc1	-7%	-2
O=C(CSc1ncc(-c2ccccc2)nn1)N=C1NC(=O)CS1	-1%	-10
Cc1nc(NC(=S)NC(=O)c2cccs2)ccc1I	-18%	-10
CC(=O)C(Sc1ccc(Cl)cc1)C(C)=O	22%	9
O=C(Cc1cccc2ccccc12)Nc1ccc2c(c1)C(=O)OC2	19%	34
Cc1ccc2nc(-c3ccc(NC(=O)CN4CCN(c5ccccn5)CC4)cc3)sc2c1	-6%	2
COc1cc(C=O)ccc1OCCOCCOc1ccccc1F	-3%	-11
COc1ccc(CCNC(=O)C(C)Sc2ccc(C)cc2)cc1OC (centres undefined)	0%	0
O=C(Nc1cccc(Cl)c1Cl)c1ccncc1	6%	0
COc1ccc(C(C)(C)C)cc1NC(=S)Nc1ccc(F)cc1F	-20%	-6
Cn1c(Sc2ccc([N+](=O)[O-])cn2)nc2ccccc21	26%	3

Entries of single compounds, quoted from the list:
Cc1ccc2nc(-c3ccc(NC(=O)CN4CCN(c5ccccn5)CC4)cc3)sc2c1 is listed as V. cholerae motility: -6%; V. cholerae motility viability: 2
COCCSc1ccccc1C(=O)Nc1cc(C)on1 is listed as V. cholerae motility: -11%; V. cholerae motility viability: -6
O=C(CSc1ncc(-c2ccccc2)nn1)N=C1NC(=O)CS1 is listed as V. cholerae motility: -1%; V. cholerae motility viability: -10

Following part.
SMILES	V. cholerae motility	V. cholerae motility viability
CC(=O)N1C(C)c2ccccc2C(C)(C)CC12CCCCC2 (centres undefined)	-3%	3
CCOC(=O)NC(=S)Nc1cccc(NC(=S)NC(=O)OCC)c1	-3%	-2
CC(=O)Nc1ccccc1-c1ccc(C)o1	-4%	1
CC(=O)Nc1c(O)nc(SCC(=O)Nc2ccc(S(N)(=O)=O)cc2)[nH]c1=O	-4%	-4
CS(=O)(=O)N1CCN(c2ccccc2NC(=S)NC(=O)c2cccs2)CC1	2%	5
CN(CC(=O)N1CCN(c2cccc(Cl)c2)CC1)S(=O)(=O)c1ccc(Br)cc1	-2%	-7
C(=C\c1ccccc1)/CSc1nnc(CSc2nc3ccccc3s2)o1	5%	5
O=C(NCc1cccs1)c1nn2cccnc2c1Cl	2%	1
N/C(=N\c1nc(C(F)(F)F)cc(=O)[nH]1)Nc1cc(Cl)cc(Cl)c1	4%	-2
OCCCNC(=S)NCCc1ccccc1	7%	28
O=C1c2ccccc2C(=O)N1Cc1ccc2c(c1)CN1C(=O)c3ccccc3C1=N2	-12%	-6
O=C(Oc1ccc(N(Cc2cccs2)C2=NS(=O)(=O)c3ccccc32)cc1)c1ccco1	5%	-3
CC(NC(=O)c1ccc(F)cc1)C(=O)O (centres undefined)	6%	-7
Cc1cc2oc(C(=O)Nc3nc(-c4ccc(S(=O)(=O)N5CCCC5)cc4)cs3)c(C)c2cc1C	-10%	-3
COc1ccc(OC)c(S(N)(=O)=O)c1	-6%	7
COC(C)CS(=O)(=O)c1ccc(C)c([N+](=O)[O-])c1 (centres undefined)	-13%	-6
O=C(Nc1ccc(S(=O)(=O)N2CCc3ccccc32)cc1)C1CC1	23%	25
CCC(=O)c1ccc(OCCCn2cnc3ccccc32)cc1	3%	5
CC(Oc1ccc(Cl)cc1Cl)C(=O)NCCc1ccc(F)cc1 (centres undefined)	-4%	0
N#Cc1ccc(-c2ccc(Cl)cc2[N+](=O)[O-])o1	72%	20
CC1(C(=O)Nc2cccc(Br)c2)CC(=O)N=C2C=CC=CN21 (centres undefined)	-6%	-1
O=C1CCCC(=O)N1c1ccc(Oc2cccc3ccccc23)cc1	25%	1
COc1cc(OC)c(OC)cc1CN1CCC(N2CCN(c3ccccc3)CC2)CC1	8%	-2
C=CCOc1cccc(CNc2ccc3[nH]c(=O)[nH]c3c2)c1	34%	18
Cc1cc(=O)oc2cc(NC(=S)NNC(=O)C(C)Sc3nc4ccccc4s3)ccc12 (centres undefined)	4%	-5
COc1ccc(-c2nc3ccccc3s2)cc1NC(=O)c1c(F)c(F)c(F)c(F)c1F	4%	0
CSCCc1nc(SCC(=O)Nc2nnc(C)s2)[nH]c1C	-2%	0
O=c1cc(CSc2nc3ccccc3s2)[nH][nH]1	4%	-1
Cc1cc(NC(=O)CCCN2C(=O)c3cccc4cccc(c34)C2=O)n(-c2ccccc2)n1	-7%	0

Quoted at random: five compounds from above
SMILES	V. cholerae motility	V. cholerae motility viability
CC1(C(=O)Nc2cccc(Br)c2)CC(=O)N=C2C=CC=CN21 (centres undefined)	-6%	-1
C=CCOc1cccc(CNc2ccc3[nH]c(=O)[nH]c3c2)c1	34%	18
Cc1cc(NC(=O)CCCN2C(=O)c3cccc4cccc(c34)C2=O)n(-c2ccccc2)n1	-7%	0
CSCCc1nc(SCC(=O)Nc2nnc(C)s2)[nH]c1C	-2%	0
COc1ccc(-c2nc3ccccc3s2)cc1NC(=O)c1c(F)c(F)c(F)c(F)c1F	4%	0

Some of the compounds tested, so the mix of outcomes need not match the whole.
